# Screening results as filed in PubChem BioAssay.
# NPYLR7 agonist: activates Aedes aegypti NPYLR7 receptor; HEK293T NPYLR7/Galpha15, GCaMP6s calcium fluorescence; actives 0.15% (n = 270,000); AID 1259423; activation, % at 10 µM; in the data active = activation above about 40%;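 also: 0% = vehicle and 100% = reference agonist at the receptor; some compounds past the cut are filed as inactive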
# NPYLR7 agonist max-min: further read-out of NPYLR7 agonist, marked with its call; activation, %; measured here: Max-Min RFU normalised activation; some inactives read as strong as hits;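 span of the calcium signal over five minutes; 0% = vehicle and 100% = native peptide agonist; compound fluorescence can raise it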
# Active calls of the source: *; & = joins results of further samples.
Compound	NPYLR7 agonist	NPYLR7 agonist max-min
CC1CN(C(=O)CCCSc2nnc(-c3ccccc3)n2-c2cccc(C(F)(F)F)c2)CCN1C(=O)c1ccc(Cl)cc1 (centres undefined)	8	20
Cc1nc2ccc(F)cc2n1C1CCN(C(=O)C2CCC(C)CC2)CC1 (centres undefined)	23	11
O=S(=O)(C=C(O)c1c[nH]c2ccccc12)Cc1ccc(F)c(F)c1	2	0
Cc1nc2ccc(C(=O)NCCN3CCOCC3)cn2c1N(C)C(=O)CCc1ccccc1	18	15
COCCN(CC(=O)N(CCc1c[nH]c2ccccc12)Cc1ccc(C(F)(F)F)cc1)C(=O)c1cccc(OC)c1	-2	-12
Cc1cc(N(C)C)nc(SCc2cccc(C(=O)NCc3ccncc3)c2)n1	3	10
FC(F)(F)c1ccnc(NC2CC3CC2C2CCCC32)n1 (centres undefined)	-6&-3	-6&-4
CC(=O)[C@@]1(O)CCC2C3C[C@H](C)C4=CC(=O)C=CC4(C)[C@@]3(F)[C@@H](O)C[C@@]21C (some centres undefined)	13	11
CCOC(=O)c1cnc(-c2cccc(C(F)(F)F)c2)nc1N1CCC1	-2	-1
O=S(=O)(N1CCCC1)N1CCC2(CCCN(Cc3ccc(F)cc3)C2)C1 (centres undefined)	3	3
Cc1ccc(F)cc1NC(=O)CSc1nn(C)c(=NCc2ccccc2)s1	-4	-5
CC(C)Oc1c(NCCN(C)C)c(=O)c1=O	-4	-5
CC(C)N1CCN(c2ccc(OC[C@H]3CO[C@](Cn4cncn4)(c4ccc(Cl)cc4Cl)O3)cc2)CC1	-4	-12
S=c1[nH]nc(-c2ccc(Cl)cc2)n1CC1CCCO1 (centres undefined)	-2	-3
CC1(C(=O)NS(=O)(=O)c2ccccc2C(F)(F)F)CCN1C(=O)Cc1ccsc1 (centres undefined)	-1	-2
CSCCCNC(=O)C1CCC(=O)N(CCN2CCOCC2)C1 (centres undefined)	6&18	7&4
CCN1CCN(CC(=O)N2N=C(c3ccc(OC)cc3)CC2c2cccc(F)c2)CC1 (centres undefined)	-3	5
O=C1OC(c2ccc(Cl)cc2Cl)=N/C1=C\c1cn(-c2ccccc2)nc1-c1ccccc1	-8	-12
CC(C)(C)OC(=O)N1CCCC(C(=O)NNC(=O)c2cc3c(s2)CCC3)C1 (centres undefined)	7	6
Cc1ccc(-c2nn(CC(=O)Nc3cccc(F)c3)c(=O)c3nc(C)sc23)c(C)c1	0	-3
CCC1c2ccsc2CCN1C(=O)CCN1C(=O)C(=O)c2ccc(F)cc21 (centres undefined)	1	-2
Cc1ccc(C(NC(=O)C2CCN(CC(C)C)CC2)c2ccccn2)cc1 (centres undefined)	6	11
CCN(CC)C(=O)CSc1nc2scc(-c3ccco3)c2c(=O)n1CC	3	9
Cc1ccc(C(=O)CSc2nnc(NC(=O)c3ccc(F)cc3)s2)c(C)c1	28	33
COc1ccc(NC(=O)C2CN(C(C)=O)c3ccccc3O2)c(OC)c1 (centres undefined)	2	1
COc1ccc(CC(=O)Nc2ccc3c(c2)OCCCO3)cc1F	-4	-5
CCn1cc(NC(=O)NCCCOC)c2ccccc21	21	21
COc1cccc(/C=C2/SC(=Nc3cc(C)cc(C)c3)NC2=O)c1O	-13	-22
CC(C)(C)c1ccc(-c2nc(-c3cccnc3)no2)cc1	6	0
Cc1ccc(NC(C)C)c(C(=O)N2CCCCCC2)c1	0	-5
CCOC(=O)c1cn2nc(C)nc2nc1C	-2	-2
CCCCCCNC(=O)c1cc(-c2ccc(OC)cc2OC)nn1-c1ccc(F)cc1	13	26
CCc1nc2ccc(C(=O)N3CCCC(C(N)=O)C3)cn2c1N(C)CCCc1ccccc1 (centres undefined)	-4	6
COc1cccc(OCCn2c(CN(C)C(=O)c3ccco3)nc3ccccc32)c1	-3	-5
Cc1cccc(OCCCNC(=O)c2cccc(S(C)(=O)=O)c2)c1	11	5
Nc1nn(S(=O)(=O)c2ccccc2)cc1-c1ccc([N+](=O)[O-])cc1	6	8
Cc1cc(Cl)cc2sc(N(Cc3ccncc3)C(=O)C(C)C)nc12	7	5
O=C(c1cc(Cl)cnc1Cl)N1CCC(c2cn(Cc3ccc(C(F)(F)F)cc3)c3ccccc23)CC1	9	0
OCCN(CCO)CC(O)COc1ccc2c(c1)OCO2 (centres undefined)	-2	-6
COc1ccc(C2CC(c3cc(Cl)ccc3O)=NN2)cc1OC (centres undefined)	0	-2
Cc1oc(-c2ccc(-c3ccccc3)cc2)nc1CN1CCCC(CN2CCCC2=O)C1 (centres undefined)	8	9
CN(C)c1ccccc1NS(=O)(=O)c1cnc(Cl)n1C	-5&16	-6&10
Cc1[nH]c2ccccc2c1S(=O)(=O)CCNC(=O)NC1CCCCC1	3	1
CC(c1nccs1)N(C)C(=O)c1ccc(C#CC(C)(C)O)o1 (centres undefined)	7	-3
COc1ccc2sc(N(CCCN3CCOCC3)C(=O)c3cccc([N+](=O)[O-])c3)nc2c1	0	-4

# Random excerpt: 2 records from the list
Compound	NPYLR7 agonist	NPYLR7 agonist max-min
CCc1nc2ccc(C(=O)N3CCCC(C(N)=O)C3)cn2c1N(C)CCCc1ccccc1 (centres undefined)	-4	6
COc1ccc2sc(N(CCCN3CCOCC3)C(=O)c3cccc([N+](=O)[O-])c3)nc2c1	0	-4

# Record cards (already shown). Order of values: NPYLR7 agonist, NPYLR7 agonist max-min
# `COc1ccc2sc(N(CCCN3CCOCC3)C(=O)c3cccc([N+](=O)[O-])c3)nc2c1` is listed with 0, -4
# `Cc1[nH]c2ccccc2c1S(=O)(=O)CCNC(=O)NC1CCCCC1` is listed with 3, 1
# `Nc1nn(S(=O)(=O)c2ccccc2)cc1-c1ccc([N+](=O)[O-])cc1` is listed with 6, 8

# Going on with the list.
Compound	NPYLR7 agonist	NPYLR7 agonist max-min
COc1ccc(CC(=O)N2CCOC(COc3ccc4c(c3)CCCC4)C2)cc1F (centres undefined)	-5	9
CNC(=O)CN(C)C(=O)c1ccc(N(C)S(=O)(=O)c2ccc(C)cc2)cc1	-2	-3
COCCN(Cc1cccc(OS(=O)(=O)c2cccc(C(F)(F)F)c2)c1)C(=O)c1ccc(Br)cc1	5	7
CCc1nc2c(OCc3ccc(F)cc3)cccn2c1N(C)C(=O)COc1ccccc1	-22	-21
CC(C)Sc1nc2ccccc2n2cnnc12	11	6
O=C(O)c1ccc(CN2C[C@H](O)C[C@H]2c2nc(Cc3ccccc3)no2)cc1	-5	-13
COC(=O)c1cccc2c1CCN(C(=O)C1=CC(=O)CC(C)(C)O1)C2	1	4
CC1CCN(Cc2cccc(CNC(=O)CNC(=O)c3ccc4c(c3)OCO4)c2)CC1	4	4
CCOc1ccc(-c2cc3c(=O)n(CC(=O)Nc4ccc5c(c4)OCO5)ccn3n2)cc1	12	8
CCNC(=O)N(Cc1ccc(F)cc1)Cc1ccc(OS(=O)(=O)c2ccc(OC)cc2)cc1	5	12
CCCCC(=O)NC1=NC(=O)C(C)(C)S1	-1	-5
O=C(c1ccc(Cl)c(F)c1)N1CCN(Cc2cccc(-c3noc(-c4cccc(C(F)(F)F)c4)n3)c2)CC1	27	15
CC(C)(C)C(C#N)NS(=O)(=O)c1ccccc1Cl (centres undefined)	4	0
CC1(C(=O)Nc2ccccc2F)CCN1C(=O)C1(c2ccc(Cl)cc2)CC1 (centres undefined)	-4	-8
Cc1ccccc1CSc1nnc(C(C)NC(=O)c2ccc(Cl)cc2Cl)n1-c1cc(Cl)ccc1C (centres undefined)	10	9
CCOc1ccc(-c2ccc(=O)n(CCNC(=O)Nc3ccc(C)cc3C)n2)cc1	4	2
CCN(CC)S(=O)(=O)c1ccc2c(c1)nc(SCCO)n2CC	0	-6
Cc1sc2nc(SCC(=O)Nc3sc4c(c3C(N)=O)CCC4)[nH]c(=O)c2c1C	2	1
CCC(=O)Nc1ccc2c(c1)N(C(=O)Cc1cccc(OC)c1)CC2	-16&4	-20&3
Cc1cccn2c(=O)nc(SCC(=O)NCc3ccccc3)nc12	0	0
CC(C)c1noc(N2CC3OCCN(Cc4ccccc4)C3C2)n1 (centres undefined)	6	5
CCCS(=O)(=O)N1CCN(c2nc(-c3ccccc3)nc(C)c2Cc2c(F)cccc2Cl)CC1	31	33
COc1ccc(/C=C2\SC(=S)N(C3CCCCC3)C2=O)c(OC)c1	6	9
O=C(CNC(=O)c1cccs1)NC1CCOC1c1ccccc1 (centres undefined)	7	6
O=C1CC(NS(=O)(=O)N2CCCC2)CN1C1Cc2ccccc2C1 (centres undefined)	18	5
Cc1ccnc(-n2c(C)ccc2C)c1	9	11
COCCNC(=O)C(NC(=O)c1ccc(OC)cc1)C1CCN(C(=O)c2cccc(Br)c2)CC1 (centres undefined)	3	7
O=C(Cc1csc2nc(-c3ccccc3)cn12)N1CCc2ccccc21	0	-2
CCc1cccc2c(C(CC(=O)NCCCOC)c3cccc(C(F)(F)F)c3)c[nH]c12 (centres undefined)	9	4
CCc1nc2ccc(C(=O)N3CCCC(C(N)=O)C3)cn2c1N(C)Cc1ccc(N(C)C)cc1 (centres undefined)	-10	-13
NC(=O)C1CN(c2ccccc2S(=O)(=O)C(F)(F)F)CCO1 (centres undefined)	5	2
OCC1CCCN(c2nc(N3CCCC3)nc(N3CCCC3)n2)C1 (centres undefined)	-14	-16
O=C(Nc1ccc(OC(F)F)cc1)c1ccc2c(c1)OCCCO2	2	1
Nc1cc(-c2ccccc2-c2ccccc2)ccn1	-3	0
COCCN[C@H]1C[C@@H]2c3[nH]c4ccccc4c3C[C@@H](C(=O)OC)N2[C@H](c2ccc(C(C)C)cc2)C1	-7	-14
Cc1nn(-c2ccccc2)nc1C(=O)N[C@H]1CC[C@@H]2SC[C@@H](C(=O)NCc3cccnc3)N2C1=O	-5	-6
Cc1ccccc1CN(C)Cc1nc2scc(-c3ccc(Cl)cc3)c2c(=O)[nH]1	3	2
CCCC(=O)NCCc1cc2ccc(C)c(C)c2[nH]c1=O	12	8
O=C(NNC1CC(c2ccccc2O)=NN1C(=O)c1ccccc1)c1ccccc1 (centres undefined)	1	3
COc1ccc(-c2nc(C(N)=O)c3[nH]c(=O)n(-c4ccccc4F)c3n2)cc1	-2	-6
CN(C(=O)c1cc2cc([N+](=O)[O-])ccc2oc1=O)C1CCCCC1	5	2
Cc1cc(C)cc(Nc2nc(-c3ccc(F)cc3)cs2)c1	14	8
COc1ccc(S(=O)(=O)Oc2ccc(CN(C(=O)c3ccccc3Cl)C3CC3)cc2)cc1	0	7
O=C(NNC(=O)c1cc2ccccc2oc1=O)c1ccc(=O)n(Cc2ccc(Cl)cc2)c1	-8	-12
C=CCOc1cccc(C(=O)NC2CCCc3nc(N(C)C)ncc32)c1 (centres undefined)	21	11
COc1cc(OC)c2c(=O)c(-c3ccc4c(c3)OCO4)coc2c1	-10	-14
COc1cn(CC(=O)NC(C)C)c(CSc2ncccn2)cc1=O	-3	-8
COc1ccccc1-n1c(=O)n(C(C)C)c(=O)c2[nH]cnc21	18	11
C#CCOc1cccc(C(C)NC(=O)c2c(C)noc2C(C)C)c1 (centres undefined)	7	4
COCCNCC(=O)N(Cc1cccn1C)C1CC1	-3	0
Cc1cccnc1[C@H](C)NC(=O)Cn1cc(C)c(=O)[nH]c1=O	15	10
CCOC(=O)c1[nH]c(C)c(C(=O)C(C)N(CCOC)C(=O)COc2ccc(Cl)cc2)c1C (centres undefined)	6	12
Cc1noc(CCNC(=O)NCCN(C)C2CCCC2)n1	-1	-5
CCOc1ccc(NC(=O)CCl)cc1S(=O)(=O)N1CCCCC1	-4	-9
C=CCn1c(SCC(=O)OC(C)(C)C)nc2scc(-c3cccs3)c2c1=O	15	7
CC(C)N(CC(=O)Nc1nc(CC(=O)N2CCN(c3cccc(C(F)(F)F)c3)CC2)cs1)C(=O)C1CCCCC1	-1	0
c1cncc(-c2nc(Sc3nnnn3C3CCCC3)c3ccccc3n2)c1	2	0
COc1cccc(CCN2CCC(C(=O)NC(c3ccc(Cl)cc3)c3ccccn3)CC2)c1 (centres undefined)	7	4
Cc1c(Cl)cccc1N=Nc1c(-c2ccccc2)[nH]n(-c2nc(-c3ccccc3)cs2)c1=O	-3	-8
COc1cccc(C(C2C(=O)N(c3ccccc3)N=C2C)C2C(=O)N(c3ccccc3)N=C2C)c1OC (centres undefined)	-10	-12

# The results go on:
Compound	NPYLR7 agonist	NPYLR7 agonist max-min
Cc1ccc(S(=O)(=O)Nc2sc(C)c(-c3ccccc3)c2C(N)=O)cc1	6	6
CCOc1ccccc1N1CC(C(=O)Nc2ccc(C)cn2)CC1=O (centres undefined)	9	3
COC1(OC)N=C(N)C2(C#N)C(c3ccc(Cl)cc3)C12C#N (centres undefined)	16	11
CC12CCC(=O)C=C1CCN(Cc1ccccc1)C2 (centres undefined)	2	6
COc1ccc(O)c(C(=O)N(C)c2ccccc2)c1	11	7
COc1ccc(OC)c(NC(=O)C2(C)CCN2C(=O)C2CCCCC2)c1 (centres undefined)	1	2
Cc1ccnc(SCCCn2c(N3CCCC3)nc3c2c(=O)[nH]c(=O)n3C)n1	8	12
Cc1c(C(C)NCc2cccn2-c2cccnc2)cnn1-c1ccccc1 (centres undefined)	4	-2
Cc1nc(/C=C/C(=O)N2CSCC2C(=O)N(C)C(C)C)cs1 (centres undefined)	1	1

# Given with two lines to a compound: four of the compounds above
# The line under a structure holds: NPYLR7 agonist | NPYLR7 agonist max-min
- COc1ccc(O)c(C(=O)N(C)c2ccccc2)c1
 : 11 | 7
- COc1ccc(OC)c(NC(=O)C2(C)CCN2C(=O)C2CCCCC2)c1 (centres undefined)
 : 1 | 2
- Cc1ccnc(SCCCn2c(N3CCCC3)nc3c2c(=O)[nH]c(=O)n3C)n1
 : 8 | 12
- Cc1c(C(C)NCc2cccn2-c2cccnc2)cnn1-c1ccccc1 (centres undefined)
 : 4 | -2

# An excerpt; the hit share may differ from the screen's.
